# Screens from PubChem.
# GALR2 agonist: GALR2 receptor agonists, primary screen, cell-based; Galanin receptor type 2 (Homo sapiens), O43603; GALR2-expressing cells, agonist activation read-out; activation, %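 (tested at 5 µM)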; actives 0.48% (n = 140,000);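 active means above mean plus 3 SD of all compounds, about 5% in these data, not always enough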;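 further: 0% = vehicle buffer wells and 100% = reference agonist at full effect; tested in CHO reporter cells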
# Target sequence (O43603 whole entry, looked up): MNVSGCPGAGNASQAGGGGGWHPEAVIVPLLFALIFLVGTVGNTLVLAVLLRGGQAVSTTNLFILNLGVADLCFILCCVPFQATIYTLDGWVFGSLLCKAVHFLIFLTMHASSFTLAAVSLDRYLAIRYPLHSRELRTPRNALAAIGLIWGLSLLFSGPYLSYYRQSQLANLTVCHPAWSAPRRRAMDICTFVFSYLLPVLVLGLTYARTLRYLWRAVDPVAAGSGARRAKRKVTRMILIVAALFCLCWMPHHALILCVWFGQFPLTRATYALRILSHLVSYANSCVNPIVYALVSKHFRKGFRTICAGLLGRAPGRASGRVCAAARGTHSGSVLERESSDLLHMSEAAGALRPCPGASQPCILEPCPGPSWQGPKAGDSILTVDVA
# HSV replic up: enhancers of HSV replication in host cells, fold increase, host cell viability | maximum fold increase | actives 0.005% (n = 220,000) | HSV replication augmentation in cells;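 active means peak rise of 1.5-fold or more in the series; tested in PC3 cells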;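 further: first round at 10 µM; read as green reporter fluorescence; hits show the peak of a series up to 25 µM; 1 = signal of infected wells without compound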
# PKD1 kinase inh: inhibitors of human PKD1 kinase, biochemical, fluorescence polarization | PKD1 kinase fluorescence polarization assay | AID 797, 2007 | inhibition, %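 (about 10 µM by stock and volumes)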 | actives 0.056% (n = 200,000) | Serine/threonine-protein kinase D1 (Homo sapiens), Q15139;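 active means inhibition of 50% or more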;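 further: controls were vehicle for no effect and a reference inhibitor for full effect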
# RGS16-Gao: modulators of RGS16 binding to Galphao, primary screen, biochemical, human proteins, multiplexed bead flow cytometry; binding response (% of control), % at 10 µM; AID 1441, 2008; actives 0.38% (n = 220,000); Regulator of G-protein signaling 16 (Homo sapiens) + Guanine nucleotide-binding protein …; bead-based flow cytometry RGS16-Galphao binding, fluorescence; actives lie on both sides;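 active means below 25% or above 175%, edge rows of some plates excepted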;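 further: Galphao activated by GDP with aluminum fluoride before binding; 100% = wells without compound and 0% = beads without RGS; some results beyond the cut were filed as inactive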
# Target sequence (O15492 whole entry, looked up): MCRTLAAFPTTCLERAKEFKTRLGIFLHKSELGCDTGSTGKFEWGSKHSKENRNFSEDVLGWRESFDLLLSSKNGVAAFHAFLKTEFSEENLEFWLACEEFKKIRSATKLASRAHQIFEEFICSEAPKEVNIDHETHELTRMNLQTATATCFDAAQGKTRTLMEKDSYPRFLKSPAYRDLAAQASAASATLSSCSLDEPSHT
# Target sequence (P09471 whole entry, looked up): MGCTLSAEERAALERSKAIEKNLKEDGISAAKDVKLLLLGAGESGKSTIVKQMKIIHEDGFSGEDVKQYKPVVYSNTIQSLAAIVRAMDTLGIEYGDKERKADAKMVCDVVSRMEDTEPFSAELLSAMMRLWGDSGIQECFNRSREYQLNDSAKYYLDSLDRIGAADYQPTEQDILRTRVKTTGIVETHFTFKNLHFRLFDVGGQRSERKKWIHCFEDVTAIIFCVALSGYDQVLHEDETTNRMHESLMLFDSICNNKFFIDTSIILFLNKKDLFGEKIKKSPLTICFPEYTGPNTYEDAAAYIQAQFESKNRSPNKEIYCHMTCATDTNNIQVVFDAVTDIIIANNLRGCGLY
# INS promoter inh: inhibitors of insulin promoter-driven GFP, primary screen, imaging, TRM-6 cells (human fetal islet line), eGFP reporter, cell count. reporter expression induced with tamoxifen. inhibition, % at 2 µM. actives 0.9% (n = 130,000). AID 1273, 2008;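 active means inhibition above the mean plus 3 SD, with well images judged a real hit on visual review, cut at about 60% in these data, passing the limit was not always enough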
# INS promoter inh cell count: second read-out of INS promoter inh, no call of its own (marks repeat the call); normalized cell count, %; measured here: cell count, toxicity; reference of the scale not given here;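 cells exposed to compound for 48 h; stained nuclei by imaging scaled within each plate; lower means fewer cells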
# HSV replic up primary fold: second read-out of HSV replic up, no call of its own (marks repeat the call); fold increase; compound at 10 µM; measured here: primary screen fold increase 10 uM; tested in PC3 cells;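 GFP signal in the first replicate; 1 = infected wells without compound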
# The depositor's hits bear a star; i = inactive; nt = no result given. Not a hit list; any-hit rate near 1.3%.
# Every second line gives: GALR2 agonist, HSV replic up, HSV replic up primary fold, PKD1 kinase inh, RGS16-Gao, INS promoter inh, INS promoter inh cell count
- O=P(O)(CCc1ccncc1)CN1CCCCC1
  -1.4, i, 0.95, 5.3, 101.5, nt, nt
- Cc1ccc(C(=O)O/N=C(\c2ccccc2)c2cccnc2)cc1
  0.8, i, 0.93, -2.2, 107.5, nt, nt
- NC(=O)c1c(NC(=O)CCCC(=O)O)sc2c1CCCCCC2
  -1.5, i, 0.94, 0.9, 32.3, 8.3, 119.1
- O=C(Nc1ccc(F)cc1F)c1csc(-c2cccs2)n1
  nt, i, 1.02, 6.2, 101.0, nt, nt
- O=C(Nc1c(C(=O)O)[nH]c2ccc(F)cc12)c1cccc(C(F)(F)F)c1
  nt, i, 1.21, nt, 105.3, nt, nt
- O=C(Nc1ccc(Cl)c(C(F)(F)F)c1)C1CCCN(S(=O)(=O)c2cnc[nH]2)C1 (configuration not stated)
  -0.5, i, 0.66, -2.1, 92.5, nt, nt
- Cc1ccc(C(=O)Nc2ccccc2-c2ccccc2)o1
  -3.5, i, 1.03, -3.6, 98.3, -76.7, 40.5
- Fc1ccc(-c2nnn3c2nc(NCc2ccccc2)c2ccccc23)cc1
  nt, i, 0.99, nt, 100.8, nt, nt
- CCN(CC)S(=O)(=O)c1ccc(N/N=C/c2cc(OC)ccc2O)nc1
  1.9, i, 0.62, 0.4, 93.0, nt, nt
- Cc1cc2ccccn2c1C(=O)c1ccc(Cl)cc1
  -1.7, i, 1.09, -3.2, 96.3, 32.4, 62.3
- CCc1nnc(NC(=O)c2cccc(C(=O)Nc3nnc(CC)s3)n2)s1
  -1.3, i, 0.76, -7.3, 108.9, nt, nt
- CC(=O)NC1C(Oc2ccc(C=O)cc2)OC(COC(C)=O)C(OC(C)=O)C1OC(C)=O (configuration not stated)
  nt, i, 1, -7.3, 99.6, nt, nt
- COc1ccc(S(=O)(=O)N(CC(=O)N2CCOCC2)Cc2ccccc2)cc1
  -0.4, i, 0.95, -11.5, 119.0, nt, nt
- COc1ccc(C2Nc3ccccc3C(=O)N2Cc2ccccc2)cc1CN1CCOCC1 (configuration not stated)
  nt, i, 1.19, nt, 97.4, nt, nt
- CCC(C)(C)n1nnnc1C(c1ccc2ncccc2c1)N1CCN(c2nc3ccccc3s2)CC1 (configuration not stated)
  -0.3, i, 0.82, 0.1, 103.7, 25.0, 156.2
- Cc1cc(C)n(-c2ncnc3sc4c(c23)CCCC4)n1
  -2.5, i, 0.96, -1.4, 99.6, -50.0, 183.1
- N#Cc1c(N2CCCC2)nc(N)c2c(N)nc(N3CCCC3)cc12
  1.3, i, 0.953, 0.8, 99.0, -21.7, 75.4
- COc1ccc(COCC(CC(C)C)N2CCN(C(=O)c3cccc(C(F)(F)F)c3)CCC2=O)cc1 (configuration not stated)
  -0.8, i, 0.79, -11.1, 51.6, -60.0, 68.6
- COc1ccc(-c2nnc(SCC(=O)Nc3ccccc3)n2C)cc1
  -0.6, i, 0.93, 4.5, 103.2, 18.2, 83.3
- COc1ccccc1C(=O)N=c1sc2c(C)ccc(OC)c2n1C
  nt, i, 0.94, nt, 96.7, nt, nt
- Cc1ccc(NC(=O)c2ccc(Cl)cc2Cl)cc1O
  nt, i, 0.97, nt, 101.9, nt, nt
- Cc1ccc(CNC(=O)C2CCC(=O)N2C2CCCCC2)cc1 (configuration not stated)
  -1.6, i, 1.14, -4.0, 101.7, -23.1, 195.4
- Cn1c(C(=O)N2CCN(Cc3ccc4c(c3)OCO4)CC2)cc2sccc21
  -3.0, i, 0.92, -8.2, 105.5, 27.3, 99.4
- COc1cccc(CN2CCN(C(=O)Nc3ccc([N+](=O)[O-])cc3)CC2)c1
  nt, i, 1.07, 8.4, 105.8, nt, nt
- Cc1ccc(C(=O)O/N=C2\CCS(=O)(=O)c3sccc32)cc1
  -1.6, i, 0.99, -5.5, 101.4, -6.5, 87.3
- CCCC(=O)NC(c1ccc(OC)c(OC)c1)c1c(O)ccc2ccccc12 (configuration not stated)
  -1.8, i, 1.02, -4.9, 96.0, 0.0, 123.6
- COc1ccc(NC(=O)CC2S/C(=N\c3nccs3)N(C)C2=O)cc1 (configuration not stated)
  nt, i, 0.74, -3.8, 109.7, nt, nt
- COc1ccc2nc(NS(=O)(=O)c3ccc(NC(C)=O)cc3)sc2c1
  -0.7, i, 0.75, -6.4, 87.8, 18.8, 98.6
- CCOCC(=O)Nc1cc(C(F)(F)F)ccc1Oc1cccc(Br)c1
  -2.1, i, 1, -1.9, 108.8, nt, nt
- CC1(N2CCOCC2)CC2(O)C(=[N+]1[O-])CCc1c2no[n+]1[O-] (configuration not stated)
  -1.8, i, 1.12, 7.2, 99.8, nt, nt
- COC(=O)c1sccc1N/C=C(\C#N)S(=O)(=O)C(C)(C)C
  nt, i, 1.18, nt, 92.7, nt, nt
- COc1ccc(NS(=O)(=O)c2cc(Cl)ccc2Cl)cc1S(=O)(=O)N1CCCCC1
  nt, i, 0.94, 4.2, 99.8, nt, nt
- O=C(c1ccccc1)N1CCN(c2ncnc3sc4c(c23)CCC4)CC1
  -0.3, i, 0.99, -3.6, 102.3, 30.8, 192.8
- CN(C)c1cncc(C(=O)O)c1
  nt, i, 0.92, -3.5, 102.8, -66.7, 103.3
- COc1cccc(CNC(=O)C(c2ccc(Cl)cc2)C(C)C)c1 (configuration not stated)
  -0.5, i, 1, -16.9, 102.7, -8.0, 100.3
- Fc1cccc(F)c1/C=N/N1CCOCC1
  nt, i, 0.98, 2.9, 102.0, 0.0, 53.3
- N#C/C(=C\N1CCOCC1)S(=O)(=O)c1ccc(Cl)cc1
  nt, i, 0.87, nt, 103.8, nt, nt
- CCOCc1cn(CC(=O)c2ccc([N+](=O)[O-])cc2)c(C)nc1=N
  -3.5, i, 0.91, -2.5, 101.9, 21.4, 104.9
- COc1ccccc1-c1cc(C(=O)N2CCc3ccccc3C2)c2ccccc2n1
  -0.7, nt, nt, 4.0, 107.2, 6.7, 102.6
- O=C1N=C(N2CCCC2)CN1c1ccccc1
  -3.4, i, 0.98, -17.2, 94.4, -28.6, 84.5

# Reformatted: entries from further up.
smiles,GALR2 agonist,HSV replic up,HSV replic up primary fold,PKD1 kinase inh,RGS16-Gao,INS promoter inh,INS promoter inh cell count
COc1ccc2nc(NS(=O)(=O)c3ccc(NC(C)=O)cc3)sc2c1,-0.7,i,0.75,-6.4,87.8,18.8,98.6
CCOCC(=O)Nc1cc(C(F)(F)F)ccc1Oc1cccc(Br)c1,-2.1,i,1,-1.9,108.8,nt,nt
CC1(N2CCOCC2)CC2(O)C(=[N+]1[O-])CCc1c2no[n+]1[O-] (configuration not stated),-1.8,i,1.12,7.2,99.8,nt,nt
COC(=O)c1sccc1N/C=C(\C#N)S(=O)(=O)C(C)(C)C,nt,i,1.18,nt,92.7,nt,nt
COc1ccc(NS(=O)(=O)c2cc(Cl)ccc2Cl)cc1S(=O)(=O)N1CCCCC1,nt,i,0.94,4.2,99.8,nt,nt
O=C(c1ccccc1)N1CCN(c2ncnc3sc4c(c23)CCC4)CC1,-0.3,i,0.99,-3.6,102.3,30.8,192.8
CN(C)c1cncc(C(=O)O)c1,nt,i,0.92,-3.5,102.8,-66.7,103.3
COc1cccc(CNC(=O)C(c2ccc(Cl)cc2)C(C)C)c1 (configuration not stated),-0.5,i,1,-16.9,102.7,-8.0,100.3
Fc1cccc(F)c1/C=N/N1CCOCC1,nt,i,0.98,2.9,102.0,0.0,53.3
N#C/C(=C\N1CCOCC1)S(=O)(=O)c1ccc(Cl)cc1,nt,i,0.87,nt,103.8,nt,nt
CCOCc1cn(CC(=O)c2ccc([N+](=O)[O-])cc2)c(C)nc1=N,-3.5,i,0.91,-2.5,101.9,21.4,104.9
COc1ccccc1-c1cc(C(=O)N2CCc3ccccc3C2)c2ccccc2n1,-0.7,nt,nt,4.0,107.2,6.7,102.6
O=C1N=C(N2CCCC2)CN1c1ccccc1,-3.4,i,0.98,-17.2,94.4,-28.6,84.5

# Later entries.
# Every second line gives: GALR2 agonist, HSV replic up, HSV replic up primary fold, PKD1 kinase inh, RGS16-Gao, INS promoter inh, INS promoter inh cell count
- CN(C)c1ccc(C(=O)OCC(=O)NC2CCCCC2)cc1
  -1.8, i, 0.92, -9.6, 97.7, -7.5, 244.2
- COC(=O)/C(=C\C(=O)c1ccc([N+](=O)[O-])cc1)Nc1ccc(OC)cc1
  nt, i, 1.1, nt, 94.6, nt, nt
- COc1ccc(-c2cc(=O)c3cc(OC)ccc3o2)cc1
  nt, i, 1.15, 10.2, 100.2, nt, nt
- COc1ccc(N2C(=S)N=C(Nc3cccc(C)c3)C23CCCCC3)cc1
  0.4, i, 1.07, -5.1, 45.8, 0.0, 46.8
- O=S(=O)(c1ccc(-n2cnnn2)cc1)N(C1CCCCC1)C1CCCCC1
  -0.9, i, 0.82, 0.9, 95.3, 27.3, 112.5
- CS(=O)(=O)c1ccc2nc(NC(=O)Nc3ccc(Cl)c(Cl)c3)sc2c1
  -0.8, i, 0.72, 0.7, 91.6, nt, nt
- NC(=O)c1ccsc1NC(=O)CSc1nnc(C2CC2)n1Cc1ccccc1
  -1.8, i, 0.88, 2.8, 103.7, 20.6, 122.1
- CCCOc1ccc(C(=O)N/N=C/c2ccc(-c3ccc(S(=O)(=O)Nc4ncccn4)cc3)o2)cc1
  -0.4, i, 0.9, -9.0, 93.2, 8.7, 113.2
- CC1CC(=O)N(c2ccc(NCc3ccc(Cl)cc3)c([N+](=O)[O-])c2)C1=O (configuration not stated)
  0.7, i, 0.85, -6.6, 108.0, -28.0, 186.6
- COc1cc(CNc2ccc(N3CCOCC3)c(C(=O)O)c2)ccc1OCC(N)=O
  -1.5, i, 0.96, -8.9, 101.0, nt, nt
- CN(Cc1ccccc1)c1ccc(C(=O)O)cc1[N+](=O)[O-]
  -2.9, i, 1.06, 3.1, 69.6, 28.1, 53.7
- CCOC(=O)C1CCN(C(=O)CSc2n[nH]c(=O)[nH]c2=O)CC1
  -2.1, i, 0.893, -10.1, 94.7, 81.5*, 112.4*
- COc1ccc(NC(=O)CCNS(=O)(=O)c2cccc3nsnc23)cc1
  nt, i, 0.95, 2.4, 114.2, 27.3, 160.6
- COc1ccccc1CNC(=O)c1nnc(Cc2ccc(Cl)cc2)o1
  0.0, nt, nt, -0.5, 104.5, 0.0, 85.7
- O=C(O)c1ccccc1/C=N/Nc1ccc(S(=O)(=O)N2CCOCC2)cc1[N+](=O)[O-]
  nt, i, 0.92, nt, 99.2, nt, nt
- On1onc2c3cc(-c4ccccc4)nc3ccc21
  -1.0, nt, nt, -3.8, 93.0, -127.3, 22.6
- COc1cc(N=c2ssnc2Cl)cc(OC)c1
  -2.7, i, 0.92, 2.1, 76.6, 58.3, 88.9
- CCN1C2OC3OC4C(OC3OC2N(CC)S1(=O)=O)N(CC)S(=O)(=O)N4CC (configuration not stated)
  nt, i, 1.04, -0.7, 117.6, -17.1, 64.8
- CC(C)c1ccc(NC(=O)C2CC(=O)N(C(C)C)C2)cc1 (configuration not stated)
  -0.2, i, 1.02, -11.0, 102.4, -5.3, 67.7
- O=C(O)COCC(=O)Nc1cc(C(F)(F)F)cc(C(F)(F)F)c1
  nt, i, 1.08, nt, 112.2, nt, nt
- CN(CC(=O)Nc1ccc(N2CCOCC2)cc1)CC(=O)Nc1ccc(Cl)cc1[N+](=O)[O-]
  -1.2, i, 0.99, 3.9, 106.1, 12.5, 74.9
- COCCCNC(=O)CSc1nc2cc3c(cc2c(=O)n1CCCC(=O)NCc1ccc(OC)cc1)OCO3
  nt, i, 0.95, -8.0, 94.5, -29.7, 72.9
- O=C(Cn1cc2c(n1)CCCC2)NCc1cccs1
  -1.7, i, 0.83, 1.9, 103.5, nt, nt
- Nc1c(C(=O)NCCc2ccccc2)nnn1Cc1ccc(Br)cc1F
  nt, i, 1.03, 3.9, 99.8, 60.0, 134.9
- O=C(NC1CCc2ccccc21)C1CCN(S(=O)(=O)c2ccc(-n3cnnn3)cc2)CC1 (configuration not stated)
  -1.7, i, 1.05, -15.2, 99.9, 10.5, 128.3
- O=C(Cc1ccccc1)NC(NCCCN1CCOCC1)(C(F)(F)F)C(F)(F)F
  -0.7, i, 1.01, -2.2, 97.0, 7.1, 97.6
- CCC(=O)N1C(Cc2ccccc2)COC1(C)C (configuration not stated)
  -1.3, i, 0.92, -0.3, 33.8, 42.9, 100.2
- S=C(NCCc1ccccn1)Nc1cc(Cl)cc(Cl)c1
  nt, i, 0.95, nt, 103.0, nt, nt
